Screening data (PubChem BioAssay)
HPGD block: qHTS Assay for Inhibitors of HPGD (15-Hydroxyprostaglandin Dehydrogenase); 15-hydroxyprostaglandin dehydrogenase [NAD(+)] (Homo sapiens), P15428; purified HPGD, NADH fluorescence kinetic, PGE2 substrate; Potency, µM, without a hit: at the highest dose activity change, negative = inhibition, usual class: inhibitors; 4.3% of 150,000 active; AID 894, 2007; active = well fitted inhibition curve with a large enough effect (not every such curve was filed as active); inconclusive = small, poorly fitted or top-dose-only effect, or another doubt; inactive = no such curve, though single readings can be large or run the other way;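 also: top concentration of the series not given in the record; plate controls included wells without enzyme; inactives centre near -10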
Target sequence (P15428 whole entry, looked up): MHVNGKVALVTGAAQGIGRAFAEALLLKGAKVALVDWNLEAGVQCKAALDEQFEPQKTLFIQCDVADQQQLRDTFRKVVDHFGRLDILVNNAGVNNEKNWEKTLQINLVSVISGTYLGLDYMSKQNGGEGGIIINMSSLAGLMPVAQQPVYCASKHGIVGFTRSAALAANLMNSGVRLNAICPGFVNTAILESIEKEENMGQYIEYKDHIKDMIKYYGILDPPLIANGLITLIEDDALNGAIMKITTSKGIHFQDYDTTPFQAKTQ
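20 nM HPGD preincubated 15 min at room temperature with compound in 50 mM Tris-HCl pH 8, 0.01% Tween 20. Started with 1 mM NAD+ and 30 uM prostaglandin E2; NADH fluorescence (360/450 nm) read 5 times over 30-s intervals, last minus first.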
* = called active by the depositor; ? = inconclusive. % is scaled to controls: 0 for no effect and ±100 for the full control effect; potency is read from the fitted curve at half-maximal effect. A portion of the library; count on the stated rates, not on these rows.

SMILES,HPGD block
Cc1cc(NCCCN(C)C)n2nc(-c3cccs3)cc2n1,?
S=C(NCc1ccco1)N1CCN(Cc2ccco2)CC1,7%
c1ccc(CSc2nnnn2-c2ccccc2)cc1,-20%
COc1ccc(N2C(=O)CC(NC3CC3)C2=O)cc1 (stereo unspecified),-6%
CCc1ccc2c(CN(CC)Cc3nc4ccccc4c(=O)[nH]3)cc(=O)oc2c1,-12%
O=C(Nc1ccccc1N1CCCCC1)c1ccc2nccnc2c1,-11%
Cc1ccc(CN2CCN(CC(=O)N/N=C/c3c[nH]c4ccccc34)CC2)cc1,-1%
Cc1cccc(Oc2ncnc3onc(C)c23)c1,-3%

SMILES,HPGD block
COC(=O)CSc1nnc(-c2ccc(S(=O)(=O)N3CCCCC3)cc2)o1,-9%
Cc1cccc(C)c1NC(=O)CCN1C(=O)C2C3CCC(C3)C2C1=O (stereo unspecified),-13%
COc1ccccc1NC(=O)C1C2C=CC(O2)C1C(=O)O (stereo unspecified),-11%
CCOc1ccc(C)cc1-n1nc2ccccc2n1,-11%
Fc1ccc(C2=CC(c3ccc(Br)o3)n3ncnc3N2)cc1 (stereo unspecified),-25%
CCOc1ccccc1NC(=O)Nc1cc(OC)ccc1OC,-6%
Cc1cccc(/N=C/c2c(O)[nH]c3ccccc23)n1,-17%
Cc1ccc(S(=O)(=O)NNC(=O)C2COc3ccccc3O2)cc1 (stereo unspecified),-3%

SMILES,HPGD block
Cc1nnc(N2C(=O)C(O)=C(C(=O)c3ccco3)C2c2ccc(C(C)(C)C)cc2)s1 (stereo unspecified),-6%
O=C(COC(=O)c1ccc(Cl)c(S(=O)(=O)N2CCCC2)c1)NC1CCCC1,-3%
CNC(=O)OCc1cccc(COC(=O)NC)n1,-1%
Cc1sc2nc(SCC(=O)NCc3cccs3)[nH]c(=O)c2c1C,25µM*
CCOC(=O)Nc1ccc(S(=O)(=O)Nc2cc(C)on2)cc1,-15%
CC(=O)C(N=Nc1ccccc1)(Sc1nnc(-c2ccccc2)n1-c1ccccc1)C(=O)Nc1ccccc1 (stereo unspecified),-9%
CC(C)CCn1c(N2CCN(c3cccc(Cl)c3)CC2)nc2c1c(=O)[nH]c(=O)n2C,-5%
Oc1c(Br)cccc1/C=N/Nc1c(F)c(F)c(F)c(F)c1F,-14%

SMILES,HPGD block
Cc1ccc(S(=O)(=O)c2cc3ccccc3oc2=Nc2ccc3c(c2)OCO3)cc1,-23%
CN(C)/C=C/C(=O)c1ccc(Cl)cc1,18µM*
COc1cc(C2C(C#N)=C(N)Oc3cc(N(C)C)ccc32)cc2c1OCO2 (stereo unspecified),?
O=C(Nc1cccnc1)c1c(F)c(F)c(F)c(F)c1F,-6%
CC(=O)c1ccc(Oc2cc(C)nc(N3CCOCC3)n2)cc1,-2%
O=C(CCn1c2c(c3ccccc31)CCCC2)NNC(=O)c1ccc([N+](=O)[O-])cc1,-16%
CC1(C)C(=O)OC(C(=O)c2ccccc2)C2(CCCCC2)C1=O (stereo unspecified),-14%
CC1CCN(C(=S)c2cn(Cc3ccccc3F)c3ccccc23)CC1,-11%

SMILES,HPGD block
COc1ccc(CN(Cc2ccccn2)S(=O)(=O)c2ccc(-n3cnnn3)cc2)cc1,-20%
COc1ccc(NC(=O)CC#N)cc1OC,-16%
Cc1cc(C)cc(NC2=NC3(CCCCC3)N=C(N)N2)c1,-11%
Cc1ccc(S(=O)(=O)N2CCC(C(=O)N3CCN(Cc4ccccc4)CC3)CC2)cc1,-11%
COC(=O)c1ccccc1S(=O)(=O)Nc1ccc(OC)nc1,-1%
Cc1[nH]c2ccccc2c1C(=O)CN1CCSCC1,0%
COc1ccccc1NS(=O)(=O)c1cccc(C(=O)OCc2nc3ccccc3s2)c1,-10%
COCCNS(=O)(=O)c1cc(OC)c(Cl)cc1Cl,1%

SMILES,HPGD block
COc1ccc(-c2cc3nc(C)cc(N)n3n2)cc1,?
COc1ccccc1NC(=O)CCn1cccc1,-6%
CCOC(=O)C1=C(C)NC(C)=C(C(=O)OCC)C1c1ccccn1,-17%
CN(C)c1ccc(/C=C/C(=O)c2cccc(Br)c2)cc1,-29%
O=C(COc1ccc2ccccc2c1)Nc1ccc2c3c(cccc13)CC2,-22%
O=C1c2ccccc2-c2onc3ccc(Oc4ccccc4)c1c23,-3%
O=C(NC12CC3CC(CC(C3)C1)C2)c1ccc(S(=O)(=O)N2CCOCC2)cc1,-5%
CN1C(=O)c2ccc(NC(=O)c3ccc(N4CCCCC4)c([N+](=O)[O-])c3)cc2C1=O,?

SMILES,HPGD block
NC(=O)C1CCN(C(=O)CN(c2cccc(C(F)(F)F)c2)S(=O)(=O)c2ccccc2)CC1,-4%
NC(=O)c1ccc(N2CCCCC2)c(N2C(=O)C3CC=CCC3C2=O)c1 (stereo unspecified),-9%
Clc1cccc2sc(N3CCN(c4ccccc4)CC3)nc12,-27%
CC(C)C[C@H](NC(=O)OC(C)(C)C)C(=O)N/N=C/C1=Cc2ccccc2OC1C (stereo partly specified),?
CS(=O)(=O)c1cccc(C(=O)NCc2ccccc2)c1,-19%
CCc1ccc(-c2csc3[n+]2CCN3C(C)=O)cc1,14µM*
O=C(NCCc1c[nH]c2ccccc12)C(=O)NCC1OCCCN1S(=O)(=O)c1ccc(F)cc1 (stereo unspecified),-15%
COc1ccc(F)cc1S(=O)(=O)N1CCCC(C)C1 (stereo unspecified),2%

SMILES,HPGD block
COc1cc(NC(=O)c2noc3c2CCC3)c(OC)cc1Cl,?
O=c1[nH]c(CSc2nnc(COc3ccccc3)n2-c2ccccc2)nc2ccccc12,-10%
Cc1cccc(-n2c(SCc3cc(=O)n4ccsc4n3)nc3ccccc32)c1,?
Cc1c(C(=O)NCC2COc3ccccc3O2)oc2ccc(S(=O)(=O)N3CCOCC3)cc12 (stereo unspecified),-26%
COc1ccc(C(=O)Nc2cccc(-c3nnc(-c4ccco4)o3)c2)cc1,-17%
O=C(Nc1ccon1)c1ccc(Cl)s1,18µM*
Cc1nc2cc(-c3cccc(F)c3)nn2c(C)c1CCC(=O)NC(C)CCc1ccco1 (stereo unspecified),?
Nc1ccc2c(c1)-c1ccccc1S(=O)(=O)N2,-6%

SMILES,HPGD block
CCCc1cc(C(=O)OC)c(NC(=O)OCC)s1,-19%
COc1ccc2[nH]c(N=Nc3ccccc3C)c(O)c2c1,-14%
Cc1cc2oc(=O)cc(COC(=O)Cn3cnnn3)c2cc1C(C)C,-21%
CCS(=O)(=O)N1CCN(C2CCC(c3ccccc3)CC2)CC1 (stereo unspecified),2%
COc1cc(C)c(-c2cc(C(=O)O)c(C)o2)cc1C(C)C,?
CCCCCCNC(=O)c1cc(-c2ccco2)nc2ccccc12,?
Brc1nnc2n1-c1ccccc1Sc1ccccc1-2,?
O=C(CN1CCC(NC(=O)c2ccco2)CC1)Nc1cccc2ccccc12,-7%

SMILES,HPGD block
O=C(CSCc1ccco1)Nc1cc(C(F)(F)F)ccc1N1CCOCC1,28µM*
Cc1cccc(-n2c(Cc3cc(=O)[nH]c(=O)[nH]3)nnc2SC(C)C)c1,-12%
CC(C)(C)C(=O)Nc1ccc(C(=O)N/N=C/c2ccccc2OC(=O)c2ccc(Cl)cc2Cl)cc1,?
CCOC(=O)Cn1c(-c2cccnc2Cl)nc2cc(Cl)c(Cl)cc21,-6%
CC(=O)N1N=C(c2ccccc2)CC1c1ccccc1[N+](=O)[O-] (stereo unspecified),-3%
CCOC(=O)c1csc(Nc2nc3ccc(F)cc3s2)n1,-16%
COCCNC(=O)c1ccc(CS(=O)(=O)c2ccc(OC)cc2)o1,-9%
Cc1ccccc1OCC(=O)N(Cc1nc(-c2ccccc2)no1)C(C)C,0%

SMILES,HPGD block
O=C1NCN(c2ccccc2)C12CCN(c1nnnn1-c1ccccc1)CC2,-6%
O=C(CN1CCCCC1)N1CCCc2ccccc21,5%
COC(=O)c1ccccc1NC(=O)c1c(O)c2c([nH]c1=O)CCCC2,-24%
N=c1sccn1CC(=O)Nc1cccc(Oc2ccccc2)c1,-10%
COc1ccc(/C=C/c2nc(N)nc(-c3ccccc3O)n2)cc1OC,-3%
Cc1ccc2nc(-c3sc4nc(C)cc(C)c4c3N)[nH]c2c1,?
CCc1cc(C(=O)c2ccccc2OC)c(N)s1,-9%
Cc1ccc(/C=C2/NC(=O)N(Cc3ccccc3F)C2=O)o1,-17%

SMILES,HPGD block
COc1ccc(NC(=O)CCC(=O)OCc2ccc(C(=O)Oc3ccc(Cl)cc3)cc2)cc1,-1%
Cc1nc(=O)c(-c2ccccc2)c(C)n1CCO,-7%
O=C(OCC(=O)c1cccs1)c1ccccc1,14µM*
CCOC(=O)C1Cn2c(nc3c(c2=O)C(C)(CC)Cc2ccccc2-3)S1 (stereo unspecified),?
CC#CCN1c2ccccc2[C@]23C[C@@H](C(=O)OC)N(S(=O)(=O)CCCC)C2=NC(C(=O)OC)=C(C(=O)OC)[C@H]13,-8%
CN(C)N1C(N)=C(C#N)C(c2ccsc2)C2=C1CCCC2=O (stereo unspecified),-5%
Cc1cn2c(=O)c3ccccc3nc2n2c(=O)c3ccccc3nc12,-10%
O=C(CCl)Nc1ccccc1Sc1ccccc1,-8%

Molecules listed so far that contain a nitro group on carbon, in the order listed:
SMILES,HPGD block
O=C(CCn1c2c(c3ccccc31)CCCC2)NNC(=O)c1ccc([N+](=O)[O-])cc1,-16%
CN1C(=O)c2ccc(NC(=O)c3ccc(N4CCCCC4)c([N+](=O)[O-])c3)cc2C1=O,?
CC(=O)N1N=C(c2ccccc2)CC1c1ccccc1[N+](=O)[O-] (stereo unspecified),-3%

(further entries)
SMILES,HPGD block
CC1=C(C(=O)OCc2ccccc2)C(C2CC2)NC(=O)N1CCCCCC(=O)O (stereo unspecified),-11%
CCOC(=O)N1CCN(C(=O)CN(c2ccc(Oc3ccccc3)cc2)S(C)(=O)=O)CC1,-3%
O=C(CNC(=O)/C(=C\c1ccc(F)cc1)NC(=O)c1ccccc1)OCc1ccccc1,-16%
COc1ccc(CCNC(=O)CSc2nnc(CNc3ccc(Cl)cc3)o2)cc1OC,-4%
CC1(C)Oc2ccc(NC(=O)C3COc4ccccc4O3)cc2O1 (stereo unspecified),20µM*
O=C(C1CCCO1)N1CCN(C(c2ccccc2)c2ccccc2)CC1 (stereo unspecified),-14%
COc1ccc(-c2nnc3c4ccccc4c(C)nn23)cc1,-18%
Cc1cnc(C(=O)Nc2nnc(C3CC3)s2)cn1,-4%

SMILES,HPGD block
Cn1nc(-c2ccccc2)c(-c2nc(-c3cccc(C(F)(F)F)c3)no2)c1Cl,-7%
O=C(N/N=C/c1ccco1)c1ccncc1,-15%
O=C1c2ccc(Oc3ccc4c(c3)C(=O)N(CCCO)C4=O)cc2C(=O)N1CCCO,-18%
COc1ccc(C(c2sc3nc(C)nn3c2O)N2CCC(C(N)=O)CC2)cc1OC (stereo unspecified),-4%
CCCCCCCC1CC(CSc2ncn[nH]2)OC1=O (stereo unspecified),-10%
CCC(C)(C)NC(=O)C(c1ccccc1F)N(C(=O)c1ccn[nH]1)c1ccccc1 (stereo unspecified),-8%
O=[N+]([O-])c1cc(Cl)c(Cl)c(Cl)c1Cl,-2%
Cn1nc(C(F)(F)F)c(C(=O)Nc2cccc(C(F)(F)F)c2)c1SCc1ccc(Cl)cc1,-21%

SMILES,HPGD block
COc1ccc(Cl)cc1N1C(=O)C2CCCN2C1c1ccc(F)c(F)c1 (stereo unspecified),-9%
O=C(NCC1COc2ccccc2O1)c1ccc(NC(=O)c2ccco2)cc1 (stereo unspecified),-24%
Cc1ccc(CC(NC(=O)c2ccccc2)C(=O)NC(C)C(=O)O)cc1 (stereo unspecified),8%
O=C(O)CCCC(=O)NCCCc1ccccc1,-3%
CCOc1cccc(OCCCOc2cccc3cccnc23)c1,-23%
CCCCCCC1CC(C)(/C(C)=N/NC(N)=O)OC1=O (stereo unspecified),-12%
COc1ccc(S(=O)(=O)Nc2ccccc2OC)cc1C,-6%
CCCNC(=O)CN(c1ccccc1)S(=O)(=O)c1ccc(OC)c(OC)c1,-10%

Taken from the results shown for reference:
SMILES,HPGD block
O=[N+]([O-])c1cc(Cl)c(Cl)c(Cl)c1Cl,-2%
Cn1nc(C(F)(F)F)c(C(=O)Nc2cccc(C(F)(F)F)c2)c1SCc1ccc(Cl)cc1,-21%
COc1ccc(Cl)cc1N1C(=O)C2CCCN2C1c1ccc(F)c(F)c1 (stereo unspecified),-9%
O=C(NCC1COc2ccccc2O1)c1ccc(NC(=O)c2ccco2)cc1 (stereo unspecified),-24%
Cc1ccc(CC(NC(=O)c2ccccc2)C(=O)NC(C)C(=O)O)cc1 (stereo unspecified),8%
O=C(O)CCCC(=O)NCCCc1ccccc1,-3%
CCOc1cccc(OCCCOc2cccc3cccnc23)c1,-23%

Carrying on.
SMILES,HPGD block
COc1cc(NS(=O)(=O)c2cc(C)ccc2OC)c(OC)cc1Cl,-5%
CC(=O)c1c(C)nn(C(C)CC(=O)O)c1C (stereo unspecified),-4%
CCCNC(=S)Nc1ccc(Br)cc1,-7%
O=C(CC1Sc2ccccc2NC1=O)Nc1ccccc1[N+](=O)[O-] (stereo unspecified),-1%
COc1ccc(C2C(C(=O)N3CCN(c4ccc(OC)cc4)CC3)c3ccccc3C(=O)N2C)cc1 (stereo unspecified),-7%
Cc1cc(C)c(C#N)c(SCC(=O)c2cccs2)n1,16µM*
Cc1cc2oc(C(=O)Nc3c(C)n(C)n(-c4ccccc4)c3=O)c(C)c2cc1C,3%
